Rce1 inhib – inhibitors of yeast Ras-converting enzyme; Q03530; yeast membranes, quenched prenylated peptide cleavage fluorescence; calls only; 0.27% of 290,000 active; AID 2563;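 active means fall in fluorescence gain of 50% or more versus controls, with final raw signal at or below 3038400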;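 further: plate controls were neutral control wells for no effect and wells lacking membranes for full effect; tested at 10 µM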
Target sequence (Q03530 whole entry, looked up): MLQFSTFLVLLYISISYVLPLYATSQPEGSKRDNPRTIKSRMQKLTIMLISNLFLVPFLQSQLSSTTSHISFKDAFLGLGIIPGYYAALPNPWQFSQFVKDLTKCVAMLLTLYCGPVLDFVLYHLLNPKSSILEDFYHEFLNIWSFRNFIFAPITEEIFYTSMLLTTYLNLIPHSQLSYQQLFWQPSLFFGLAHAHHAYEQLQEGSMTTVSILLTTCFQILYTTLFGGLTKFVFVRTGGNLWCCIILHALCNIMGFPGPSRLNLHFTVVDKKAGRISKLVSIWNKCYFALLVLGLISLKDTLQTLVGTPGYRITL
eIF4H inh – inhibitors of RNA binding by human eIF4H | Q15056 | eIF4H fluorescence polarization binding assay | inhibition, % at 35 µM | 0.94% of 290,000 active | AID 2012;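 active means 50% or more with normal probe brightness, or confirmed in later tests; about a fifth of its hits are not listed in these tables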;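 further: calls also rest on retests at 20 µM and on dose response follow-up; 0% = protein and probe with vehicle and 100% = probe without protein; strong numbers were not always called active; many hits fall short of the cut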
CSC inhib – cancer stem cell inhibition | cancer stem cell-like cells viability, luminescence | inhibition, % at 7.5 µM | 1.1% of 300,000 active;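 active means mean at 75% or more and at least half the replicates too; tested in HMLE shEcad cells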;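 further: 0% = median of negative and 100% = median of positive control wells; the first replicate is given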
Yeast UUG start – modulators of start codon recognition fidelity in yeast | S. cerevisiae UUG-firefly luciferase reporter, luminescence/redox ratio | activity score, % at 18.7 µM | 0.13% of 350,000 active | AID 602363;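 active means replicate mean at a twofold rise or more, about +100% in these data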;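 further: firefly luciferase made from a UUG start codon reports start codon fidelity; reporter light over untreated wells divided by growth signal over untreated wells; some hits fall short of that in this replicate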
MT1-MMP act inh – blocks activation of human MT1-MMP; P50281; HT1080 RFP-PRO-GFP cells, GFP/RFP ratio fluorescence, overnight; percent of plate control window, DMSO zero; GFP/RFP ratio change, % at 20 µM; 0.061% of 360,000 active;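 active means GFP/RFP ratio change of at least 30% with cell ATP level not reduced by more than half and red fluorescence within 50% of control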; further: strong numbers were not always called active
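Compound: 20 µM single dose, 1% DMSO / System: HT1080 RFP-PRO-GFP cells / Controls: DMSO and RFP-L50D-GFP cell wells / Read-out basis: GFP/RFP fluorescence ratio / Schedule: overnight compound exposure at 37 °C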
PABP polyA inh – PABP-poly(A) binding inhibition; PABP-poly(A) RNA binding, fluorescence polarization; inhibition, % at 35 µM; 1% of 290,000 active;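 active means 50% or more with normal probe brightness, or confirmed in later tests; about a fifth of its hits are not listed in these tables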;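 further: calls also rest on retests at 20 µM and on dose response follow-up; controls were probe without protein and protein plus probe with vehicle; some compounds called inactive have numbers as strong as hits; many hits fall short of the cut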
Target sequence (P11940 whole entry, looked up): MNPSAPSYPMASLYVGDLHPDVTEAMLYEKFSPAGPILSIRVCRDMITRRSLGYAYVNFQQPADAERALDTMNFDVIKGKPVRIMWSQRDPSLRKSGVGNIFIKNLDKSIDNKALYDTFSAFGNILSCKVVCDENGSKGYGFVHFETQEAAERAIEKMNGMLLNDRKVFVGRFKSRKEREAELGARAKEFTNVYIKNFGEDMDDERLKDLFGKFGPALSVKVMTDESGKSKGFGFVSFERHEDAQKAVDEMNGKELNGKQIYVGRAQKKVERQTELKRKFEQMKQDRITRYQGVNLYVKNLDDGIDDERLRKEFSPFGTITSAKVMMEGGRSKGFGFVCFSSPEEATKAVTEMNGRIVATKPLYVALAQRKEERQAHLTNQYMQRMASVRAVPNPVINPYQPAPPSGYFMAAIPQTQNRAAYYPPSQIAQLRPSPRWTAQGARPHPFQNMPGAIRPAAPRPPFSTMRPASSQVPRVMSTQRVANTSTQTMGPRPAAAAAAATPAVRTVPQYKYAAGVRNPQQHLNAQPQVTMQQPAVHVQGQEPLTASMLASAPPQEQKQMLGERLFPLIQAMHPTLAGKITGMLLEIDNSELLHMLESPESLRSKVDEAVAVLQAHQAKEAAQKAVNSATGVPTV
Env fusion inh – inhibitors of HIV Env-mediated cell fusion; AID 651610; inhibition, % at 12.3 µM; HeLa-JRFL Env/CEM21 cell fusion, luciferase; 1.1% of 360,000 active;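 active means mean replicate inhibition score of at least 50 and every replicate individually at or above 50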;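 further: 0% = plate neutral controls and 100% = maraviroc near 300 nM; one replicate is shown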
eIF4H inh retest – further read-out of eIF4H inh, marked with its call; inhibition, %; compound at 20 µM; confirmation average;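 mean of two retest wells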
PABP polyA inh retest – second read-out of PABP polyA inh, no call of its own (marks repeat the call); inhibition, %; compound at 20 µM; confirmation repeats;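 mean of two retest wells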
MT1-MMP act inh RFP – further read-out of MT1-MMP act inh, marked with its call; RFP signal change, %; measured here: RFP expression control read;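 0 = vehicle wells; hits needed this value within 50% of zero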
* hit, by the source's call; i = inactive; · = not tested or not shown; & = joins results of further samples.

SMILES | Rce1 inhib | eIF4H inh | CSC inhib | Yeast UUG start | MT1-MMP act inh | MT1-MMP act inh RFP | PABP polyA inh | Env fusion inh | others
CCOC(=O)c1c(NC(=S)Nc2ccc(C)cc2)sc2c1CCC2 | i | -1 | 6 | · | 0 | 1 | -1 | ·
CC1(C(=O)Nc2ccc3c(c2)OCCO3)CCN1C(=O)c1ccccc1CCc1ccccc1 (centres undefined) | · | · | · | -9 | 0 | -3 | · | 41
Cc1c(C(=O)Nc2ccccc2)sc2ncn(CC(=O)N3CCCCC3)c(=O)c12 | i | -6 | · | 11 | -1 | 2 | -4 | -4
COc1ccc(Nc2c3ccccc3nc3ccccc23)cc1 | i | -14 | 50 | 3 | 5 | -9 | -4 | 1
CCCN1C(=O)c2cc(C(=O)NC3CCCCCC3)ccc2C1O (centres undefined) | i | -1 | -15 | -24 | -11 | -2 | -9 | -54
CC(C)=CCN1CCNC(=O)C1CC(=O)NCc1nc(C)c(C)s1 (centres undefined) | i | 9 | 4 | · | -7 | 1 | 2 | -30
Cn1c2ccccc2c(=O)n2c(=O)c3ccccc3cc12 | i | 11 | 10 | · | · | · | 18 | ·
CC1(C)Cc2c(sc3nc(-c4cccs4)n(N)c(=O)c23)CO1 | i | -2 | 15 | -11 | -12 | -17 | 3 | -21
O=C(/C=C/c1ccco1)NC(=S)Nc1ccc(C(=O)O)cc1 | i | 97* | · | · | -2 | 4 | 79* | -9
COc1ccc(Br)cc1/C=C/C(=O)NCC(=O)O | i | -12 | -21 | · | 0 | 0 | 1 | 1
O=C(CSc1ncnc2c1nnn2Cc1ccccc1F)NCC1CCCO1 (centres undefined) | i | -6 | 7 | 2 | 4 | -3 | -7 | -5
CCCNS(=O)(=O)c1cc2c(cc1Br)CCN2C(=O)CC | · | · | · | -11 | 1 | 1 | · | 12
Cc1cccc(N(C)S(=O)(=O)c2ccc3c(c2)NC(=O)CC(=O)N3)c1 | i | -2 | -12 | -15 | -1 | 3 | 0 | 14
O=C(Cc1ccccc1)NNC(=O)C1CCN(c2ncccn2)CC1 | i | 6 | -2 | · | 2 | 5 | 8 | 2
CN(C)c1ccc(NC(=O)CSc2nnc(-c3cccs3)n2Cc2ccco2)cc1 | i | 8 | · | · | 3 | 1 | 12 | ·
CCn1nc(C)c(C2C(C#N)=C(N)Oc3n[nH]c(C)c32)c1C (centres undefined) | i | 2 | -6 | · | 3 | 1 | 8 | ·
O=C(COC(=O)Cc1ccc(Br)cc1)NC1CCCC1 | · | · | -22 | -2 | -1 | 2 | · | -35
Cc1ccc(NC(=O)c2cccc(S(=O)(=O)N3CCCc4ccccc43)c2)nc1 | · | · | 0 | -18 | -1 | -20 | · | ·
O=C(N/N=C/c1cccc(OC2CSC2)c1)c1ccccc1O | i | 2 | -2 | -11 | 4 | 3 | 4 | ·
Cc1ccc(CNC(=O)c2cccc(-n3cnnn3)c2)cc1 | i | 0 | 0 | -8 | -1 | 3 | -5 | -73

Entries above containing a COOH group, in the order listed:
SMILES | Rce1 inhib | eIF4H inh | CSC inhib | Yeast UUG start | MT1-MMP act inh | MT1-MMP act inh RFP | PABP polyA inh | Env fusion inh | others
O=C(/C=C/c1ccco1)NC(=S)Nc1ccc(C(=O)O)cc1 | i | 97* | · | · | -2 | 4 | 79* | -9
COc1ccc(Br)cc1/C=C/C(=O)NCC(=O)O | i | -12 | -21 | · | 0 | 0 | 1 | 1

(more compounds)
SMILES | Rce1 inhib | eIF4H inh | CSC inhib | Yeast UUG start | MT1-MMP act inh | MT1-MMP act inh RFP | PABP polyA inh | Env fusion inh | others
CCOCc1c(C(=O)Nc2ccc3nc(N4CCOCC4)sc3c2)oc2ccccc12 | · | · | · | -31 | 9 | -9 | · | 3
O=C(NCCN1CCN(C(=O)c2ccc(Br)cc2)CC1)c1ccc(Br)cc1 | i | -9 | -15 | 16 | 5 | -9 | -3 | 34
C=C1CCN([C@@H](CC(C)C)C(=O)NCc2ccc(Cl)cc2)S(=O)(=O)c2ccccc21 | i | · | -4 | -9 | 1 | -4 | · | 14
CC(Sc1nc2c(c(=O)n(C)c(=O)n2C)n1Cc1cc2c(cc1Cl)OCO2)C(=O)O (centres undefined) | i | -10 | -9 | · | 6 | 2 | 9 | 12
CCOc1ccc2[nH]c3c(NCCO)ncnc3c2c1 | i | -2 | 1 | -12 | 13 | 6 | -1 | 14
CCOC(=O)CN1CC23C=CC(O2)C(C(=O)NCc2ccc(C)cc2)C3C1=O (centres undefined) | i | -9 | -9 | 2 | 1 | 6 | -1 | -4
N#CC1=C(N)SC(N)=C(C#N)C1CCC1CCCCC1 | i | 122 | 46 | · | · | · | 116* | · | eIF4H inh retest=46;PABP polyA inh retest=77*
CCOc1ccc(OCc2cccc(C(=O)Nc3ccc(CN4CCCCC4)cc3)c2)cc1 | i | 3 | 79* | · | 0 | -6 | 3 | 43
COCCCn1c(Cc2csc(Nc3ccccc3)n2)nnc1SCC(N)=O | i | -1 | -1 | · | 1 | -1 | 5 | -29
Cc1sc(NC(=O)c2ccccc2F)c(CN2CCCCC2C)c1C (centres undefined) | i | 9 | · | -17 | -1 | 3 | 6 | ·
CSc1cccc(NC(=S)N2CCCN(Cc3ccc(F)cc3)C2)c1 | i | 12 | 14 | · | 6 | 0 | 76 | -10 | eIF4H inh retest=-9;PABP polyA inh retest=-1
CN(C)C=Nc1ncc2c3ccccc3n(Cc3ccccc3)c2c1C#N | i | -10 | -9 | -13 | -11 | -5 | -3 | ·
COc1ccc(S(=O)(=O)N2CCC3(CC2)OCCN3S(=O)(=O)c2cccs2)cc1 | i | · | -1 | -3 | -5 | -8 | · | ·
CCc1c(C)nc(SCC(=O)Nc2c(C)n(C)n(-c3ccccc3)c2=O)[nH]c1=O | i | 1 | -1 | -12 | 3 | 3 | 0 | 4
COc1ccc(S(=O)(=O)N2CCCCCC2)cc1NC(=O)CN1C(=O)NC(C)(c2ccccc2)C1=O (centres undefined) | i | · | -12 | 19 | 2 | -3 | · | 5
COc1ccc(NC(=O)CSc2nc3ccccc3n2-c2ccccc2)c([N+](=O)[O-])c1 | i | 2 | · | · | -3 | -4 | 36 | 17
COc1ccc(NC(C)=[N+](C)CCNS(=O)(=O)c2ccc(Cl)cc2)cc1 | i | -16 | 13 | -10 | -2 | 1 | 56* | 12 | eIF4H inh retest=-8;PABP polyA inh retest=97*
O=C(CCC(=O)NC1CCCCC1)Nc1cccnc1 | i | -4 | -5 | -4 | 4 | 1 | -1 | -15
COCC(=O)Nc1c(C(=O)Nc2ccc3c(c2)OCO3)oc2ccccc12 | i | 9 | 1 | -8 | 3 | 0 | 9 | -52
O=C(NCCCN1CCCC1=O)c1cccc(C(F)(F)F)c1 | i | 6 | -7 | · | 2 | 1 | 2 | -12
CN(CC(=O)N1CCc2ccccc21)S(=O)(=O)c1cccs1 | i | -11 | 19 | -3 | 0 | 1 | -5 | ·
CSc1nc2ccc(S(=O)(=O)N3CCCC3)cc2s1 | i | 1 | -15 | 5 | 3 | 0 | 6 | -30
Cc1nc2nc[nH]n2c(=O)c1NS(=O)(=O)c1ccc(C(C)(C)C)cc1 | i | -1 | -7 | -21 | 1 | 0 | -1 | -1
COc1ccc(-c2nnc(NC(=O)C3CC3)o2)cc1 | i | 5 | -14 | · | 3 | 0 | 6 | -7
Cc1noc(C)c1NC(=O)N(C)C[C@H]1Oc2ccc(NC(=O)Cn3cnnn3)cc2C(=O)N([C@H](C)CO)C[C@@H]1C | · | · | · | -20&-8 | -1 | 3 | · | 27
Cc1ccc(CN2CCN(C(=O)c3ccco3)CC2)cc1 | i | -3 | · | 4 | 4 | 0 | 1 | ·
COc1cccc(NC(=O)COC(=O)C2C3CC4OC(=O)C2C4C3)c1 (centres undefined) | i | -2 | 28 | -6 | 1 | 4 | 5 | -14
COc1ccc(-c2nnn(-c3ccc(Cl)cc3Cl)c2N)cc1 | i | 1 | -4 | · | -1 | -4 | -2 | 0
CC(Sc1nc(-c2ccccc2)cc(C(F)(F)F)n1)C(=O)Nc1sc2c(c1C(N)=O)CCC2 (centres undefined) | i | 0 | -12 | · | 2 | 2 | 9 | -4
CCOC(=O)CSc1nnc(Cc2cc(=O)[nH]c(=O)[nH]2)n1-c1cccc(OC)c1 | i | 3 | -2 | 2 | 1 | 2 | 7 | -148
CC(C)n1cc(/C=N/Nc2ccc(C(=O)O)cc2)c2ccccc21 | i | -1 | -17 | -58 | 5 | 2 | 8 | 1
COc1ccc(C(=O)COC(=O)c2ccccn2)cc1OC | · | · | -8 | -11 | 0 | 1 | · | 4
Cc1ccc2c(c1)N(Cc1ccccn1)C(=O)C(C)O2 (centres undefined) | i | 3 | -1 | -6 | 6 | -6 | 6 | -9
CCC(C)n1cnc2c(c1=O)c1nc3ccccc3nc1n2Cc1ccccc1OC (centres undefined) | i | -13 | -4 | -16 | -1 | -10 | 1 | ·
Cc1ccc(NC(=O)CSc2nnc3ccc(-c4ccncc4)nn23)cc1 | i | · | · | -7 | -5 | -2 | · | ·
CCOC(=O)c1c(NC(C)=O)sc2c1CCC(C=O)=C2Sc1ccccc1 | i | -1 | 89* | -11 | -30 | -2 | -2 | ·
CC(C)N(Cc1ccccc1)C(=O)C1CCCN(c2ncnc3c2nc2n3CCCCC2)C1 (centres undefined) | i | -1 | 2 | -13 | -2 | -6 | 0 | 43
Cc1nc2c(cnn2CCO)c(=O)[nH]1 | · | · | · | 7 | -1 | 3 | · | -3
CC(C)Cn1c(/C=C/c2ccccc2)nc2ccccc21 | i | 0 | 35 | -1 | -9 | -5 | -3 | -34
Cc1cc(NC(=O)c2cn(C3CCCCC3)c(=O)c3c2c2ccccc2n3C)no1 | i | -6 | -1 | -12 | -9 | -12 | -5 | -1
O=C(Nc1nccs1)c1ccc(-c2cccc([N+](=O)[O-])c2)o1 | i | -9 | -14 | -14 | 0 | -4 | 0 | -74
CCCOC(=O)Cc1c(O)c2ccccc2[nH]c1=O | i | 3 | 11 | -10 | -3 | -2 | -5 | ·
Cc1ccc(C)c(NC(=O)C2CC(=O)N(C(C)C)C2)c1 (centres undefined) | i | 8 | 0 | -6 | -7 | 0 | 2 | -48
COCCNC(=O)C1CC(c2ccc(F)cc2)=NO1 (centres undefined) | i | 1 | -4 | · | 1 | 4 | -2 | -7
O=C(NCC(=O)N(Cc1ccco1)C(C(=O)NC1CCCC1)c1ccncc1)c1cccs1 (centres undefined) | i | 10 | -14 | -10 | -2 | 3 | -7 | -5
O=[N+]([O-])c1ccc(N2CCN(C(=S)Nc3ccc(F)cc3F)CC2)cc1 | i | -1 | -7 | -16 | 10 | -3 | -12 | 4
COc1ccccc1-n1cnnc1SCC(=O)N1CCOCC1 | i | -8 | 0 | -33 | 1 | 3 | -6 | 20
O=C(CN1C(=O)NC2(CCCCCC2)C1=O)N1CCN(c2ccccc2)CC1 | · | · | · | -13 | 2 | 1 | · | -101
CCn1c(SCC(=O)Nc2oc(C)c3c(C)n[nH]c(=O)c23)nc2sc(C)c(C)c2c1=O | · | · | 1 | -1 | 7 | 4 | · | ·
COc1cccc(-n2cnnn2)c1 | i | -4 | -13 | · | -3 | 2 | 0 | 12
(continued)
SMILES | Rce1 inhib | eIF4H inh | CSC inhib | Yeast UUG start | MT1-MMP act inh | MT1-MMP act inh RFP | PABP polyA inh | Env fusion inh | others
CC(=O)Nc1cc[n+](C(C)C(=O)c2ccc(Cl)cc2)cc1 (centres undefined) | i | 7 | -3 | -8 | 5 | 6 | 6 | -3
COc1ccc(OCC(=O)Nc2cc(C)c(Cl)cc2OC)c([N+](=O)[O-])c1 | i | -4 | -11 | 3 | -2 | 5 | -7 | -5
CCC(=O)Nc1cc(Cl)ccc1C(=O)O | i | -16 | -6 | -5 | 0 | 3 | 4 | -30
O=C(CN1c2ccccc2Sc2ccccc21)N/N=C/c1ccccc1 | i | 4 | 13 | -1 | 1 | -7 | 8 | 12

Screens as filed in PubChem.
